P. falciparum M17LAP = P. falciparum M17LAP inhibitors, primary screen, biochemical, fluorogenic H-Leu-NHMec substrate, 1536-well (AID 1619); recombinant M17LAP, H-Leu-NHMec fluorogenic kinetic assay; higher % means a stronger effect; 220,000 compounds, 0.38% hits; inhibition, % at 30 µM; hits with a dose series show IC50 in µM;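 active = compound inhibiting the enzyme by more than half at any dose during confirmatory dose-response retesting; inconclusive = strong single-dose inhibitors picked by rank but not retested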;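 also: plate controls were full reaction with DMSO carrier for no effect and no enzyme background for full effect; strong numbers were not always called active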
LYP inhibition = inhibitors of LYP phosphatase, biochemical, fluorescence intensity, uHTS (AID 1779); recombinant LYP phosphatase, fluorescence intensity; higher % means a stronger effect; inhibition, % at 11.5 µM, or IC50 in µM where a hit was titrated; 290,000 compounds, 0.054% hits; in the data active = inhibition above about 50%;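 also: plate controls were vehicle with enzyme for no effect and no enzyme for full effect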
Dynein cargo inh = dynein cargo transport inhibition; 3617.4 mouse cells, GR-EGFP nuclear translocation imaging; test concentration mostly 20 µM; stimulated with dexamethasone, 1 µM; active compounds read low; z-score, hits read low; 220,000 compounds, 0.47% hits; AID 1381;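 active = plate z-score of nuclear minus cytoplasmic receptor signal below a set negative limit, without overly bright fluorescence or cell loss, cut at about -3.5 in these data, passing the limit was not always enough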;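 also: z-score of nuclear minus cytoplasmic ring GR-EGFP intensity difference per well; some compounds called inactive have numbers as strong as hits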
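Buffer or medium: tet-free medium with charcoal-stripped serum / Also added: dexamethasone agonist, 1.0 µM final, for 30 min / Timing: induction 48 h, compound 1 h, agonist 30 min / Measured by: high-content fluorescence imaging after fixation / Read-out: nuclear-to-cytoplasmic GR-EGFP distribution per well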
M1AAP inhibition = P. falciparum M1AAP inhibitors, biochemical, fluorogenic H-Leu-NHMec substrate, 1536-well (AID 1445); recombinant M1AAP, H-Leu-NHMec fluorogenic kinetic assay; higher % means a stronger effect; inhibition, % at 30 µM; hits with a dose series show IC50 in µM; 220,000 compounds, 0.42% hits;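 active = primary inhibition above the hit cutoff, then over 50% inhibition at one or more dose response concentrations, cut at about 23% in these data, passing the limit was not always enough; inconclusive = conflicting primary data, or primary hits not chosen for dose response; inactive = low primary inhibition, or under 50% at every dose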;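 also: plate controls were DMSO full reaction for no effect and no enzyme background for full effect; strong numbers were not always called active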
Siah-1 displacement = blockers of Siah-1 interaction with plectin peptide – biochemical, fluorescence polarization, rhodamine-plectin, uHTS, primary screen (AID 1817). displacement, % at 20 µM; hits with a dose series show IC50 in µM. Siah-1 / rhodamine-plectin peptide fluorescence polarization; higher % means a stronger effect. 290,000 compounds, 0.02% hits;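 active = displacement of at least 50% at 20 µM, with a fluorescence ratio check between 0.3 and a set limit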;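 also: plate controls were Siah plus tracer with DMSO for no effect and tracer alone without Siah for full effect; strong numbers were not always called active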
XIAP displacement = XIAP antagonists, biochemical, IAP family, fluorescence polarization (AID 1018); XIAP BIR domain, fluorescence polarization peptide displacement; higher % means a stronger effect; one-dose displacement, % at 20 µM; IC50 in µM for titrated hits; 200,000 compounds, 0.007% hits; in the data active = displacement above about 50%; also: a part of the inactive calls stands beside numbers as strong as those of hits
AID2073 = inhibitors of Mint1-CaV2.2 protein interaction, biochemical, HTRF (AID 2073) | one-dose inhibition, % at 20 µM; IC50 in µM for titrated hits | 290,000 compounds, 0.19% hits | HTRF protein-protein interaction, Mint1-CaV2.2; higher % means a stronger effect; in the data active = inhibition mostly above about 51%, no sharp cut-off; inconclusive = no clear call, values can overlap the other calls; inactive = mostly below about 53%; also: some results filed as inactive read as strong as hits
Dynein cargo inh cytoplasmic EGFP = further read-out of Dynein cargo inh, marked with its call; z-score; measured here: cytoplasmic GR-EGFP intensity; active compounds read high
Dynein cargo inh nuclear GR-EGFP = further read-out of Dynein cargo inh, marked with its call; z-score; measured here: nuclear GR-EGFP intensity;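 lower value marks the stronger effect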
Dynein cargo inh cell count = second read-out of Dynein cargo inh, no call of its own (marks repeat the call); z-score; measured here: cell count per field
Active calls of the source: *; ? = inconclusive; . = not tested or not shown. These rows are one share of the data, so the mix of outcomes need not match the whole.

P. falciparum M17LAP	LYP inhibition	Dynein cargo inh	Dynein cargo inh cytoplasmic EGFP	Dynein cargo inh nuclear GR-EGFP	Dynein cargo inh cell count	M1AAP inhibition	Siah-1 displacement	XIAP displacement	AID2073	SMILES
-1.0%	9.1%	-0.437	-0.236	-0.976	1.06	0.1%	1.2%	-7.4%	26.1%	O=C(Nc1ccc(Oc2ccccc2)cc1)C1CCN(c2c3c(nc4ncnn24)CCC3)CC1
24.0%	0.7%	0.799	-0.211	0.316	-1.1	10.1%	6.2%	-5.7%	26.8%	CC1(C)CC(=O)C(C(c2ccco2)C2C(=O)CC(C)(C)CC2=O)C(=O)C1
0.1%	-6.1%	-0.698	0.239	-0.219	1.4	12.6%	-0.6%	-6.0%	0.4%	CCOC(=O)c1cncc(C(=O)O)c1
-11.9%	7.9%	-0.513	-0.269	-0.678	0.516	1.9%	-1.4%	-3.7%	47.8%	Cc1cc(C)c2c(c1)[C@@H]1C=CC[C@@H]1[C@H](c1ccc(S(=O)(=O)N3CCOCC3)cc1)N2
13.7%	-5.3%	-0.278	0.0751	0.363	-0.174	4.9%	4.3%	-5.9%	-3.2%	O=C(NN=c1c(=O)c2ccccc2c1=O)c1ccccc1
9.7%	-2.9%	0.206	-0.268	0.251	-0.0243	4.8%	6.3%	-1.2%	-0.1%	O=C(O)CSc1ccccc1C(=O)O
11.7%	-4.8%	0.338	-0.3	0.103	0.748	0.6%	1.1%	-2.7%	4.5%	O=C(CC1c2ccccc2Oc2ccccc21)N1CCN(c2ccccn2)CC1
-6.8%	-6.5%	-0.855	-0.198	-0.131	0.45	5.2%	7.2%	-8.1%	-4.8%	COc1ccc(/C=N/NC(=O)CO/N=C(\C)c2cccs2)cc1
-1.0%	-2.9%	0.834	-0.203	0.0174	-0.725	-5.1%	2.2%	-0.7%	-6.3%	COc1ccc(-n2cnnc2SCC(=O)Nc2ccc(N3CCOCC3)cc2)cc1
-50.2%	-6.7%	-0.358	-0.197	0.332	0.852	10.8%	4.3%	-2.9%	16.8%	CCOc1c2ccc(C(=O)NCc3ccco3)cc2nn1CCOC
3.5%	4.5%	-0.798	-0.22	-0.432	0.829	0.5%	-0.6%	-5.7%	5.2%	Cc1ccc(-c2csc3ncnc(SCC(=O)c4ccc5c(c4)OCCO5)c23)cc1
12.4%	-2.9%	.	.	.	.	-2.6%	-2.2%	-6.2%	-2.7%	Cn1nc(C(F)(F)F)c(C(=O)Nc2cccc(Cl)c2)c1Cl
-0.7%	-5.9%	1.79	-0.202	0.51	-0.89	-1.2%	-3.0%	-4.5%	11.5%	CCOc1ccc(NC(=O)C(C)Oc2ccccc2C(=O)Nc2cccc(Cl)c2Cl)cc1 (stereo unspecified)
4.6%	-3.7%	0.291	-0.249	0.543	-0.0369	0.2%	9.5%	-4.0%	-8.3%	C1CCC2=NCCCN2CC1
5.8%	-7.2%	-0.488	-0.134	-0.279	0.85	2.4%	-5.0%	-4.1%	-5.9%	Cc1ccc(-n2c([O-])nc(-[n+]3ccccc3)c2C=O)cc1

Brought forward from above: 2 entries; new compounds follow.
P. falciparum M17LAP	LYP inhibition	Dynein cargo inh	Dynein cargo inh cytoplasmic EGFP	Dynein cargo inh nuclear GR-EGFP	Dynein cargo inh cell count	M1AAP inhibition	Siah-1 displacement	XIAP displacement	AID2073	SMILES
4.6%	-3.7%	0.291	-0.249	0.543	-0.0369	0.2%	9.5%	-4.0%	-8.3%	C1CCC2=NCCCN2CC1
5.8%	-7.2%	-0.488	-0.134	-0.279	0.85	2.4%	-5.0%	-4.1%	-5.9%	Cc1ccc(-n2c([O-])nc(-[n+]3ccccc3)c2C=O)cc1
-2.2%	-4.8%	0.427	0.7	0.342	-4.14	-2.5%	2.9%	-3.0%	1.7%	COc1cc(CNC2CCCC2)cc(Cl)c1OCc1ccccc1Cl
0.5%	-4.6%	-0.927	-0.285	-0.382	0.616	-1.7%	0.5%	-1.7%	0.4%	COc1ccc(NC(=O)CSc2ncnc3c2cnn3Cc2ccccc2)cc1
-12.0%	-5.4%	-0.451	-0.233	-0.628	0.533	6.0%	-0.9%	-0.5%	15.3%	Cc1cc(CSc2ccccc2)ccc1NC(=O)c1cccc([N+](=O)[O-])c1
4.9%	-12.2%	-0.757	-0.214	-0.124	0.403	2.7%	-3.7%	-3.7%	-2.8%	Clc1ccc(-c2nnc(-c3ccco3)o2)cc1
9.4%	1.7%	0.0618	-0.0223	0.234	-0.257	8.9%	-2.4%	-2.3%	6.0%	Cc1cc2cc(C(c3nnnn3C(C)(C)C)N(Cc3ccco3)CC3CCCO3)c(=O)[nH]c2cc1C (stereo unspecified)
6.7%	-3.6%	-0.235	-0.211	-0.805	0.471	11.5%	-0.5%	-1.2%	0.6%	CCn1nnnc1SCC(=O)NC1CCCC1
30.1%	-3.1%	0.256	-0.176	-0.0766	0.148	10.4%	-2.3%	-6.4%	-1.5%	O=C(N/N=C/c1ccco1)c1ccncc1
1.4%	-6.4%	0.896	-0.329	0.235	0.542	-1.2%	3.0%	1.1%	?	COc1ccc(C2=NOC(C(=O)NC(C)(C)C)C2)cc1 (stereo unspecified)
8.5%	0.6%	-0.205	0.00316	-0.321	0.202	14.8%	-1.3%	-4.7%	-6.5%	O=C(CNC(=O)c1ccccn1)N/N=C/c1ccccc1
1.6%	11.7%	-0.978	-0.153	0.179	0.302	-1.6%	-0.7%	-4.5%	-1.4%	Cc1ccc(SCc2nc3ccccc3n2CC(=O)Nc2ccc(Cl)cc2)cc1
5.5%	-2.5%	0.382	0.334	0.451	-0.442	10.2%	-1.9%	3.0%	1.6%	Cc1cc(/C=C(\C#N)C(=O)Nc2ccccc2)c(C)n1-c1cccnc1
-4.8%	-7.5%	0.209	-0.0487	0.456	0.639	4.7%	4.8%	-0.5%	8.6%	CC(=O)Nc1ccc(OCC(O)Cn2c3ccccc3c3ccccc32)c(C)c1 (stereo unspecified)
-9.8%	0.2%	0.535	-0.148	0.961	0.111	24.4%*	0.6%	-13.4%	33.6%	Oc1ccc2ccccc2c1CNc1cnc2ccccc2c1
29.5%	-3.8%	-0.445	-0.343	0.136	0.827	5.3%	2.6%	-4.1%	-0.7%	O=C(O)C1C2C=CC(C2)C1C(=O)NCCC1=CCCCC1 (stereo unspecified)
5.1%	-6.2%	0.346	-0.232	-0.0365	0.239	-4.5%	-2.6%	-1.0%	12.8%	CCNc1nc(NCC)nc(N(C)N)n1

Further results follow.
P. falciparum M17LAP	LYP inhibition	Dynein cargo inh	Dynein cargo inh cytoplasmic EGFP	Dynein cargo inh nuclear GR-EGFP	Dynein cargo inh cell count	M1AAP inhibition	Siah-1 displacement	XIAP displacement	AID2073	SMILES
6.6%	-0.7%	-1.05	-0.108	0.148	0.852	0.8%	3.6%	-5.0%	?	COc1cccc(-n2c(SCC(=O)Nc3sc4c(c3C(N)=O)CCC4)nc3ccccc3c2=O)c1
15.4%	2.1%	0.873	-0.0219	0.502	-0.519	8.9%	-1.3%	-5.9%	-2.9%	CC(C)OC(=O)c1sc2nc(-c3ccccc3)ccc2c1N
9.0%	2.6%	0.307	-0.2	-0.0937	-0.0923	2.5%	0.1%	-5.1%	4.7%	O=c1[nH][nH]c(C(F)(F)F)c1C=Nc1ccc(Cl)cc1
4.7%	-8.7%	0.156	-0.205	-0.128	0.0384	6.3%	-5.2%	-5.3%	-8.3%	O=C(COc1ccc(OCc2ccccc2)cc1)NC1CCOC1=O (stereo unspecified)
6.2%	-5.3%	0.461	0.178	0.618	-1.02	-2.3%	0.5%	-2.6%	-5.3%	CC1=C(C(=O)NCCN2CCN(C)CC2)C2(CCC(C)CC2)OC1=O (stereo unspecified)
1.9%	-6.6%	0.264	-0.237	0.492	0.134	5.2%	0.1%	-5.3%	11.1%	CCC(C)NC(=O)C1CCN(S(=O)(=O)c2cccnc2)CC1 (stereo unspecified)
3.8%	-10.2%	0.163	-0.119	-0.00598	0.342	2.5%	2.0%	-2.0%	-2.8%	Nc1nc(N2CCOCC2)cc(=O)[nH]1
8.5%	-8.3%	0.283	-0.241	-0.719	0.152	0.0%	0.6%	-2.6%	-6.8%	CCCC(C)NC1=NCCCCC1 (stereo unspecified)
13.6%	0.3%	0.106	-0.208	0.583	-0.149	15.9%	3.0%	0.7%	-1.1%	CCN(CC)c1ccc(/C=N/NC(=S)NCc2ccccc2)cc1
-178.3%	-6.3%	0.435	-0.225	-0.713	0.389	13.2%	0.5%	-4.8%	23.0%	CCOC(=O)c1cc2c(=O)n3cccc(C)c3nc2n(Cc2ccco2)c1=NC(=O)c1ccccc1
-8.5%	-0.7%	-0.514	-0.25	-0.076	0.655	8.3%	-0.3%	-1.0%	-3.6%	CCc1ccc(OCCCOc2ccc(C=O)cc2)cc1
-3.8%	-3.5%	-0.927	-0.19	-1.08	0.289	1.2%	-1.3%	-1.8%	-1.3%	CCCCNC(=O)COC(=O)c1cc(F)c(F)cc1Cl
7.8%	12.3%	0.184	-0.177	0.465	-0.856	7.7%	-2.2%	-1.1%	10.1%	O=C(NCC12CC3CC(CC(C3)C1)C2)c1cc2n(n1)C(C(F)(F)F)CC(c1ccco1)N2 (stereo unspecified)
23.2%	2.9%	-0.883	-0.0638	-0.189	-0.174	10.8%	2.7%	2.5%	-31.1%	O=C(/C=C/c1ccc(-c2ccccc2[N+](=O)[O-])o1)c1ccc(F)cc1
2.2%	10.0%	-1.68	51.5	7.48	-1.79	-3.9%	1.7%	-6.3%	29.6%	CCN(CC)c1ccc2c(Cl)c(Br)c(=O)oc2c1

The list continues.
P. falciparum M17LAP	LYP inhibition	Dynein cargo inh	Dynein cargo inh cytoplasmic EGFP	Dynein cargo inh nuclear GR-EGFP	Dynein cargo inh cell count	M1AAP inhibition	Siah-1 displacement	XIAP displacement	AID2073	SMILES
-2.7%	2.3%	-2.41	6.47	0.69	-0.111	5.2%	-3.3%	0.0%	?	O=[N+]([O-])c1ccc(-c2nc(-c3cccs3)c(-c3cccs3)[nH]2)cc1
6.4%	2.2%	1.94	-0.227	1.66	-0.474	1.8%	-6.3%	2.4%	-34.4%	CCCOc1ccc(C(=O)NNC(=S)NC(C)=O)cc1
5.6%	-11.4%	-0.499	-0.19	-0.249	0.492	-2.9%	-1.5%	-3.5%	-1.4%	CC(C)C12CCC(C(=O)O)C(C1)C(=O)O2 (stereo unspecified)
7.0%	2.6%	0.474	-0.226	-0.341	0.327	-1.2%	1.3%	-6.2%	23.4%	CCCCCCCCCCCC(=O)NC(C(=O)OCC)C(O)c1cccc([N+](=O)[O-])c1 (stereo unspecified)
8.3%	-6.1%	-0.0292	0.105	0.192	0.499	3.9%	2.9%	-2.4%	-2.4%	Cc1cc(C)n(-c2nc(-c3ccc(Cl)c(Cl)c3)cs2)n1
13.2%	5.7%	0.0566	-0.168	-0.244	-0.168	0.8%	3.1%	-4.1%	12.2%	Cc1cc(Br)ccc1NCc1ccccn1
-176.4%	1.3%	-0.134	-0.121	-0.211	-0.161	0.3%	1.3%	-5.0%	7.2%	COc1c(F)c(F)c(C(=O)O)c(Nc2ccc(C)cc2)c1F

Assay outcomes: PubChem BioAssay, several laboratories
